# High-throughput results (PubChem)
# Polio RdRp inh = poliovirus RNA polymerase inhibition | % elongation, % (compound at 16.7 µg/mL) | P03300 | poliovirus polymerase elongation, fluorescence polarization; hits give low values | AID 588519 | 150,000 compounds, 0.66% hits; in the data active = % elongation below about 90%; also: some results filed as inactive read as strong as hits
# Target sequence (P03300 1749-2209 limits assumed): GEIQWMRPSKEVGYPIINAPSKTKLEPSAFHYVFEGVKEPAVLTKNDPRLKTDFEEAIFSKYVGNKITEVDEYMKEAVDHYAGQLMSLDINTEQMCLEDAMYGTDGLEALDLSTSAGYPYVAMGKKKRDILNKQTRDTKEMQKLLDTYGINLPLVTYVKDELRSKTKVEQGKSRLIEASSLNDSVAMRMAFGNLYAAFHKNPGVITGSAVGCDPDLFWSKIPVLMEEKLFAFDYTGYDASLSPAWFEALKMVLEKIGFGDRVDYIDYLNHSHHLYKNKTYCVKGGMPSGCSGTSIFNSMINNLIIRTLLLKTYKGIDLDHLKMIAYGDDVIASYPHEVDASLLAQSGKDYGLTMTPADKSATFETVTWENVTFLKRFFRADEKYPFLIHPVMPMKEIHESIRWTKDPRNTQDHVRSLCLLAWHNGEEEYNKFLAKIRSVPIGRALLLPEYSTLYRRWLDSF
# Polio RdRp inh intensity = second read-out of Polio RdRp inh, no call of its own (marks repeat the call); % elongation; measured here: total intensity read-out; formula for this scale not given here;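 total fluorescence in place of polarization; lower means less elongation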
# Numbers without * were called inactive. Only part of the results is shown. The share of hits here may be higher or lower than overall.
Structure,Polio RdRp inh intensity,Polio RdRp inh
Cc1ccc(-c2nc(C)c(CCNC(=O)c3ccco3)s2)cc1,114,113
CCOC(=O)c1nnc2c(-c3ccc(Cl)cc3)c(C)nn2c1C,107,108
CCOC(=O)c1c(NC(=O)CSc2cn(CCNC(=O)c3c(F)cccc3F)c3ccccc23)sc2c1CCC2,113,110
CCCCNC(=O)c1c(-c2ccccc2)c(-c2ccccc2)nn(C)c1=O,106,105
CCc1noc(-c2ccc(NC(C)c3ccccc3)c([N+](=O)[O-])c2)n1 (stereo unspecified),111,109
Cc1cccc(NC(=O)Cn2c(=O)oc3cc(S(=O)(=O)NCc4ccccc4)ccc32)c1,110,108
CCOc1ccc(C2C(=O)N(C3CCCCCC3)CC(=O)N2CCc2ccc(OC)c(OC)c2)cc1OC (stereo unspecified),113,108
CCCS(=O)(=O)N1CC(=O)N(c2ccccc2C)C(C)(C(=O)NC2CCCCC2)C1 (stereo unspecified),110,107
CCOC(=O)Cn1c(=O)n(-c2ccc(Cl)cc2)c2nc(-c3ccc(Cl)cc3)nc(C(N)=O)c21,109,107
CCOc1ccccc1CNS(=O)(=O)c1ccc(-c2coc(C)n2)cc1,114,110
COc1ccc(CCNC(=O)c2cnn(-c3ccc(F)cc3)c2C2CCN(C(=O)OC(C)(C)C)CC2)cc1OC,113,109
O=C(NCc1cccs1)c1ccc(Cn2c(SCc3ccc(F)cc3)nc3cccnc32)cc1,113,112
Cc1ccc(C)c(NC(=O)c2ccc3c(c2)CCN3S(C)(=O)=O)c1,94,98
COc1ccc(OCC(=O)NCc2ccc3c(c2)CCN3C(=O)c2ccccc2)cc1,109,102
CCCCNC(=O)Cn1cnc2sc(C)c(S(=O)(=O)N3CCN(c4ccccc4OC)CC3)c2c1=O,107,108
Cc1ccc(CSC2=Nc3ccccc3C3=NC(CC(=O)NCc4cccs4)C(=O)N23)cc1 (stereo unspecified),108,107
CCc1cccc(C)c1NS(=O)(=O)c1ccc(-n2cccn2)cc1,99,101
COc1cc(CN(C(=O)c2ccccc2F)C2CCS(=O)(=O)C2)cc(OC)c1OC (stereo unspecified),112,107
Cc1nc2cc(-c3ccccc3)nn2c(C)c1CCC(=O)N1CCN(c2ccc(F)cc2)CC1,110,106
CCCN1CCN(CCCNC(=O)Cn2nc(CC)n3c(cc4occc43)c2=O)CC1,105,106
Cc1ccc(S(=O)(=O)N(CC(O)Cn2c3ccccc3c3ccccc32)c2cccc(C(=O)NCCO)c2)cc1 (stereo unspecified),106,104
CCOC(=O)c1[nH]c2c(c1Cc1ccccc1OC)C(=O)CC(c1ccc(OCC)cc1)C2 (stereo unspecified),104,104
O=C(CCN1C(=O)c2ccccc2Sc2ncccc21)Nc1ccc(F)cc1F,104,103
NC(=O)C1(N2CCCCC2)CCN(C(=O)Nc2ccc(F)cc2)CC1,108,110
Cc1ccc(C)c(N2CCN(C(=O)c3cc4c(=O)n(Cc5cccnc5)ccc4nc3C)CC2)c1,117,113
COc1ccc(CCNC(=O)CCc2cn(Cc3ccc(C)cc3)c3ccccc23)cc1OC,105,111
COc1ccccc1OCC(=O)NCC1(N(C)C)CCCCC1,113,110
CCc1cccc(-n2nnc(-c3nsc(NC(=O)c4ccc(C)cc4)n3)c2C)c1,113,110
COc1ccc(Cl)cc1NC(=O)c1cn(C2CCCC2)c(=O)c2c1c1ccccc1n2C,115,114
Cn1cnc2c(=O)oc3ccc(S(=O)(=O)N4CCN(c5cccc(Cl)c5)CC4)cc3c21,111,111

# Filtered by structure, those above with a thiophene ring, fused or not (four)
Structure,Polio RdRp inh intensity,Polio RdRp inh
CCOC(=O)c1c(NC(=O)CSc2cn(CCNC(=O)c3c(F)cccc3F)c3ccccc23)sc2c1CCC2,113,110
O=C(NCc1cccs1)c1ccc(Cn2c(SCc3ccc(F)cc3)nc3cccnc32)cc1,113,112
CCCCNC(=O)Cn1cnc2sc(C)c(S(=O)(=O)N3CCN(c4ccccc4OC)CC3)c2c1=O,107,108
Cc1ccc(CSC2=Nc3ccccc3C3=NC(CC(=O)NCc4cccs4)C(=O)N23)cc1 (stereo unspecified),108,107

# (next part)
Structure,Polio RdRp inh intensity,Polio RdRp inh
Cc1ccccc1CCNC(=O)C1CCN(c2nc3ccccc3nc2C(F)(F)F)CC1,110,102
Cn1c(=O)oc2cc(S(=O)(=O)CCC(=O)N3CCN(c4ccccc4)CC3)ccc21,111,111
O=C(c1ccccc1)n1nc(-c2ccc(Cl)cc2)nc1NCc1ccco1,109,107
CCOc1ccc(NC(=O)Cn2nc3c(cc2=O)CC(C)CC3)cc1 (stereo unspecified),114,106
CC(NC(=O)c1ccc2c(c1)sc1nc(-c3ccccc3)cn12)C12CC3CC(CC(C3)C1)C2 (stereo unspecified),106,102
Cc1ccc2c(CC(=O)Nc3ccc(S(=O)(=O)N4CCCCC4)cc3)coc2c1C,111,108
CN(Cc1ccccc1)C(=O)c1ccc(CSc2nc3cccnc3n2Cc2ccccc2F)cc1,104,107
COc1c(C)cccc1C(=O)Nc1cccc2ccc(C)nc12,100,100
CCc1ccc(NC(=O)CSc2nc(-c3ccccc3)c(C#N)c(=O)[nH]2)cc1,105,109
O=C(O)CCc1ccc(-c2ccccc2)n1CC(=O)Nc1ccccc1C(F)(F)F,112,111
Cc1cc(Br)ccc1NC(=O)c1c(C)oc2ncnc(N3CCCCC3)c12,113,109
CCOc1ccc(OCC)c(NC(=O)CCc2nc3cccnc3n2Cc2cccs2)c1,122,104
COC(=O)c1ccc(C2C(C(=O)Nc3ccccc3)=C(C)Nc3nc4ccccc4n32)cc1 (stereo unspecified),107,103
Cc1ccc(-c2nnc(Nc3cccc(Cl)c3)c3ccccc23)cc1S(=O)(=O)N1CCOCC1,106,107
CSc1ncc(C(=O)Nc2c(C)cccc2C)c(-c2ccccc2)n1,107,103

# Some of the entries so far, with each value named:
COc1ccc(CCNC(=O)CCc2cn(Cc3ccc(C)cc3)c3ccccc23)cc1OC
  Polio RdRp inh intensity: 105	Polio RdRp inh: 111

CCOc1ccc(C2C(=O)N(C3CCCCCC3)CC(=O)N2CCc2ccc(OC)c(OC)c2)cc1OC (stereo unspecified)
  Polio RdRp inh intensity: 113	Polio RdRp inh: 108

# The list continues:
Structure,Polio RdRp inh intensity,Polio RdRp inh
Cc1cccc(NC(=O)c2oc3ccccc3c2NC(=O)c2cc(=O)c3ccc(C)cc3o2)c1,111,104
COc1ccc(Cl)cc1NC(=O)c1c(NCc2ccc(C)o2)sc2c1CCCC2,170,139
CCc1nn(CC(=O)NC(C)CC)c(=O)c2cc3occc3n12 (stereo unspecified),107,107
CN1C(=O)c2[nH]nc(-c3ccc(F)cc3)c2C1c1cccc(O)c1 (stereo unspecified),93,104
Cc1ccc(Cn2c(CCNC(=O)c3cccc(C)c3)nc3ccccc32)cc1,109,106
CCOc1ccc(CNC(=O)c2cccc(Nc3nc4ccccc4n4nnnc34)c2)cc1OC,108,103
O=C(COc1ccc(Cl)cc1)Nc1ccc(O)c(-c2nc3ccccc3s2)c1,113,108
CCOc1ccc(-c2cc(CCCC(=O)NCCc3ccc(Cl)cc3)no2)cc1,106,103
Cc1cc(C)c(NC(=O)CN2C(=O)CCn3nc(-c4cccn4C)cc32)c(C)c1,108,102
CC(=O)c1ccc(N2CCN(c3ccc(NC(=O)c4ccc(F)cc4)cc3C(=O)O)CC2)cc1,108,108
Cc1cccc(C)c1NC(=O)CS(=O)(=O)c1nc(-c2ccc(Cl)cc2)cn1-c1ccccc1,105,104
COc1cccc(CNC(=O)Cn2c(=O)oc3cc(S(=O)(=O)N4CCC(C)CC4)ccc32)c1,99,100
O=C(CC1Sc2ccc(C(F)(F)F)cc2NC1=O)Nc1ccc(Cl)c(C(F)(F)F)c1 (stereo unspecified),111,106
O=C(Nc1ccc(Cl)c(C(F)(F)F)c1)C1CCN(S(=O)(=O)c2cccc3nonc23)CC1,113,109
CCc1nc2nc(C)c(NS(=O)(=O)c3ccc(C(C)(C)C)cc3)c(=O)n2[nH]1,106,103

# Structures listed so far with a COOH group (2):
Structure,Polio RdRp inh intensity,Polio RdRp inh
O=C(O)CCc1ccc(-c2ccccc2)n1CC(=O)Nc1ccccc1C(F)(F)F,112,111
CC(=O)c1ccc(N2CCN(c3ccc(NC(=O)c4ccc(F)cc4)cc3C(=O)O)CC2)cc1,108,108

# (more compounds)
Structure,Polio RdRp inh intensity,Polio RdRp inh
CCOC(=O)c1ccccc1NC(=O)N1CCN2CCCCC2C1 (stereo unspecified),111,103
Cc1ccc(CNc2c(C)c(C)nc3nncn23)cc1,102,109
COc1cccc(CNS(=O)(=O)c2cc(Br)cc3c2N(C(C)=O)C(C)C3)c1 (stereo unspecified),103,109
O=C(OCc1ccccc1Cl)c1ccc(-c2nnn(Cc3ccc(F)cc3)n2)cc1,100,104
Cc1ccc(NC(=O)CSc2nnc3[nH]c(=O)cc(C)n23)cc1Cl,101,107
Cc1cc(Nc2cccc(O)c2)c2cccc(Br)c2n1,109,103
Cc1cc(=O)n(Cc2cccc(Cl)c2)c2c1c(C)nn2-c1ccccc1,108,104
CCCCN1CCc2nc(N3CCN(c4ncccn4)CC3)ncc2C1,104,105
C=C(C)Cn1c(SCC(=O)c2ccccc2)nc2sc3c(c2c1=O)CCCC3,98,104
COc1ccccc1N1CCN(C(c2ccccc2)c2nnc(-c3ccccc3Cl)o2)CC1 (stereo unspecified),104,109
COc1ccc(CCNC(=O)c2c(O)nc3cc(C)ccn3c2=O)cc1OC,111,105
CCOc1ccc(CCNC(=O)CCCc2nnc3n(CC(C)C)c(=O)c4sccc4n23)cc1,116,119
COC(=O)c1sc2cccc(F)c2c1S(=O)(=O)N1CCN(c2ccc(C)cc2C)CC1,112,105
COc1ccc2nc(N(Cc3cccnc3)C(=O)c3ccc4c(c3)OCCO4)sc2c1,104,104
COc1cccc(C(c2sc3nc(-c4ccco4)nn3c2O)N2CCCC2)c1 (stereo unspecified),96,102
COC(=O)c1cccc(-n2c(CCC(=O)O)ccc2-c2cccs2)c1,105,102
CCCCn1nc(NC(=O)c2cccc(Cl)c2)c2cc3ccc(C)cc3nc21,115,118
CCCN1C(=O)c2oc3cc(C)cc(C)c3c(=O)c2C1c1ccc(F)cc1 (stereo unspecified),103,104
Cc1nc2ccc(S(=O)(=O)NC(CC(C)C)C(=O)N3CCN(c4ccc(F)cc4)CC3)cc2s1 (stereo unspecified),92,92
COc1cccc(NC(=O)CCNS(=O)(=O)c2ccc(Br)s2)c1,109,108
CCOC(=O)C(C)NC(=O)c1cc2c(=O)[nH]c3ccc(C)cc3c2s1 (stereo unspecified),105,106
COC(=O)c1cc2sc(Cl)cc2n1Cc1nc(-c2ccc(OC)cc2)oc1C,112,111
COc1ccc(C(CC(=O)Nc2ccc(C)c(C)c2)N2Cc3ccccc3C2=O)cc1OC (stereo unspecified),109,105
COC(=O)c1c(NC(=O)Cc2coc3cc(C)ccc23)sc2c1CCCC2,117,115
CCc1ccccc1NC(=O)CN(Cc1ccccc1)S(=O)(=O)c1ccc(Br)cc1,110,108
O=C(Cn1ncc2c(=O)oc3ccccc3c21)NCc1ccccc1Cl,107,106
Cc1cccc(CCNC(=O)c2cc3c(s2)-c2c(C)cccc2OC3)c1,104,98
Cc1cc(C)cc(OCC(=O)NCC2(N3CCOCC3)CCCCC2)c1,108,110
O=C(NCc1cccs1)c1ccc(Cn2c(SCc3cccc(F)c3)nc3cccnc32)cc1,114,111
Cn1cc(-c2cc3n(n2)CCC(=O)N3CCCC(=O)Nc2ccc(Cl)cc2)c2ccccc21,110,111
COc1cc(-c2noc(-c3ccc(N(C)C)c([N+](=O)[O-])c3)n2)cc(OC)c1OC,119,112
Cc1ccccc1NC(=O)c1ccc(Cl)c(S(=O)(=O)N2CCCCCC2)c1,100,100
Cc1ccc(C)c(Nc2ncnc3c2cnn3-c2ccc(F)cc2)c1,103,110
O=C(Nc1ccc(Br)cc1)Nc1nc2c(s1)CCCCCC2,112,104
COc1ccc(Cl)cc1NC(=O)Cn1c(=O)oc2cc(S(=O)(=O)N3CCCCCC3)ccc21,105,107
COc1ccc(N2Cc3cccc(C(=O)Nc4ccc(F)cc4)c3C2=O)cc1,106,111
Cc1cn(C)c(CC(=O)NCc2ccccc2)c1C(=O)O,111,108
Cc1cccn2c(=O)c(C(=O)NCc3ccccc3Cl)c(O)nc12,116,110
O=C(Nc1cccc(Cl)c1)N1CC2CCCN2c2ccccc21 (stereo unspecified),94,104
COCCCNC(=O)CS(=O)Cc1nc(-c2cccc(C)c2)oc1C (stereo unspecified),110,108
COc1ccc(C)cc1NC(=O)c1cccn(Cc2cccc([N+](=O)[O-])c2)c1=O,108,111
Cc1ccc(NC(=O)c2cnc3cc(C)ccn3c2=O)c(C)c1,117,116
COc1ccc(CCNC(=O)C(=O)Nc2ccc(C)cc2)cc1OC,97,102
O=C(NCc1ccco1)C1CCN(C(=O)N2CCOc3ccccc32)CC1,112,109
COc1cccc(C(=O)NCC(=O)OCc2cc(=O)n3c(C)csc3n2)c1,101,111
Cc1ccc(C)c(CN2C(=O)c3ccccc3S(=O)(=O)c3ccc(C(=O)N4CCOCC4)cc32)c1,98,105
